Source: PubChem (National Center for Advancing Translational Sciences (NCATS))
Vaccinia mCherry: inhibitors of vaccinia virus infection (mCherry reporter signal) | AID 720579 | Potency, µM (titrated, usually from 36.5 µM), inactives show top-dose activity change, negative = inhibition, hits mostly inhibitors | 0.63% of 310,000 active | Vaccinia virus mCherry reporter infection, fluorescence; about a quarter of the inactives have no number; active = well fitted inhibition curve with a large enough effect; inconclusive = small, poorly fitted or top-dose-only effect; inactive = no such curve, though single readings can be large or run the other way; tested in A549 cells; note: nearly all actives have a fitted effect of over 35% in size; inactives centre near -10
VACV Venus inh: vaccinia inhibition (Venus reporter); Vaccinia virus Venus reporter expression, fluorescence; Potency, µM (top dose mostly 36.5 µM), without a hit: at the highest dose activity change, negative = inhibition, actives largely listed as inhibitors; 0.46% of 330,000 active; AID 720580; active means well fitted inhibition curve with a large enough effect; inconclusive means small, poorly fitted or top-dose-only effect; inactive means no such curve, though single readings can be large or run the other way; tested in A549 cells; note: nearly all actives have a fitted effect of over 30% in size; inactives centre near -10
Numbers without * were called inactive; i = inactive; ? = inconclusive; · = not tested or not shown; [ ] = remark or other dose. % is set by controls: 0 for no effect and ±100 for the full control effect; potency is the fitted concentration of half-maximal effect.

The first 16 compounds, to show the layout:
cpd	Molecule	Vaccinia mCherry	VACV Venus inh
1	Cc1cc(C(=O)Nc2c(C)n(C)n(-c3ccccc3)c2=O)c2ccccc2n1	-8%	-3%
2	CCC(CC)n1[nH]c(=O)cc1N	·	-8%
3	COc1ccc(OCC(=O)NNC(=O)c2cccs2)cc1	-10%	-11%
4	C[C@@H]1CCCCO[C@@H](CN(C)C(=O)CCCN(C)C)[C@@H](C)CN([C@H](C)CO)C(=O)c2cc(N(C)C)ccc2O1	7%	-12%
5	CN1CCN(c2nc(N)cc(=O)[nH]2)CC1	i	-6%
6	COc1ccc(-n2nc3cc(C)c(NC(C)=O)cc3n2)cc1	i	-13%
7	CC(C)C(=O)NC(c1ccccc1)c1cc([N+](=O)[O-])c2cccnc2c1O (configuration not stated)	?	?
8	Cc1cc(=O)n2cccc(O)c2n1	-4%	-7%
9	CCCCNC(=S)N(C)N=C1CCC(c2ccccc2)CC1 (configuration not stated)	-15%	-21%
10	Cn1c(=O)c2ncn(CC(=O)O)c2n(C)c1=O	i	-5%
11	CCOc1ccc(CC(=O)C2=C(N3CCOCC3)CC(C)(C)CC2=O)cc1OCC	3%	-4%
12	COc1ccccc1N1CCN(C(=O)C(C)NC(=O)c2ccco2)CC1 (configuration not stated)	i	-6%
13	S=C1SCN(Cc2cccnc2)CN1Cc1ccccc1	?	?
14	O=[N+]([O-])c1ccc2cn[nH]c2c1	i	-14%
15	C=CCn1c(CCC(=O)Nc2ccc(C)c(Cl)c2)nnc1SCC(=O)Nc1ccccc1C	?	-20%
16	CCn1cc(C(=O)N2CCN(c3ccccc3)CC2)c(=O)c2cc(S(=O)(=O)N(C)C3CCCCC3)ccc21	-20%	-1%

This part in full (from the top)
cpd	Molecule	Vaccinia mCherry	VACV Venus inh
1	Cc1cc(C(=O)Nc2c(C)n(C)n(-c3ccccc3)c2=O)c2ccccc2n1	-8%	-3%
2	CCC(CC)n1[nH]c(=O)cc1N	·	-8%
3	COc1ccc(OCC(=O)NNC(=O)c2cccs2)cc1	-10%	-11%
4	C[C@@H]1CCCCO[C@@H](CN(C)C(=O)CCCN(C)C)[C@@H](C)CN([C@H](C)CO)C(=O)c2cc(N(C)C)ccc2O1	7%	-12%
5	CN1CCN(c2nc(N)cc(=O)[nH]2)CC1	i	-6%
6	COc1ccc(-n2nc3cc(C)c(NC(C)=O)cc3n2)cc1	i	-13%
7	CC(C)C(=O)NC(c1ccccc1)c1cc([N+](=O)[O-])c2cccnc2c1O (configuration not stated)	?	?
8	Cc1cc(=O)n2cccc(O)c2n1	-4%	-7%
9	CCCCNC(=S)N(C)N=C1CCC(c2ccccc2)CC1 (configuration not stated)	-15%	-21%
10	Cn1c(=O)c2ncn(CC(=O)O)c2n(C)c1=O	i	-5%
11	CCOc1ccc(CC(=O)C2=C(N3CCOCC3)CC(C)(C)CC2=O)cc1OCC	3%	-4%
12	COc1ccccc1N1CCN(C(=O)C(C)NC(=O)c2ccco2)CC1 (configuration not stated)	i	-6%
13	S=C1SCN(Cc2cccnc2)CN1Cc1ccccc1	?	?
14	O=[N+]([O-])c1ccc2cn[nH]c2c1	i	-14%
15	C=CCn1c(CCC(=O)Nc2ccc(C)c(Cl)c2)nnc1SCC(=O)Nc1ccccc1C	?	-20%
16	CCn1cc(C(=O)N2CCN(c3ccccc3)CC2)c(=O)c2cc(S(=O)(=O)N(C)C3CCCCC3)ccc21	-20%	-1%
17	CCC(C)NC(=O)CCCc1nnc2n(CC(C)C)c(=O)c3sccc3n12 (configuration not stated)	-6%	-12%
18	Cc1c(NC(=O)CN2c3cccc4cccc(c34)S2(=O)=O)c(=O)n(-c2ccccc2)n1C	i	-22%
19	COc1ccc(-n2c(CCc3ccccc3)nnc2SCC(=O)NCc2ccccc2)cc1	-28%	-11%
20	Cc1ccc(C(=O)NC(=S)Nc2ccccc2C(F)(F)F)cc1C	i	-16%
21	COC(=O)c1scc(-c2ccc(C)cc2)c1S(=O)(=O)Nc1cccc(C(F)(F)F)c1	-9%	0%
22	CC(=O)CC(=O)Nc1ccc(C(N)=O)cc1	-1%	3%
23	C=CCN1C(=O)C(Cc2ccccc2Cl)SC1=Nc1ccc(C(=O)O)cc1 (configuration not stated)	-7%	-1%
24	C[C@H](NC(=O)NCc1ccc(F)cc1)C(=O)O	-9%	-12%
25	CN(c1cccc(NC(=O)c2ccc(C(C)(C)C)cc2)c1)S(C)(=O)=O	i	-20%
26	COc1ccccc1CNC(=O)N/C=C/c1ccc(Cl)cc1	-2%	4%
27	Cc1ccccc1C(=O)Nc1ccccc1Sc1ccccc1	·	-14%
28	O=C(c1ccc(S(=O)(=O)Nc2ccc(F)cc2)cc1)N1CCN(C(=O)c2ccco2)CC1	-5%	-29%
29	COc1ccc(CCN2CCCC(CN(C)C(=O)c3cc(C)oc3C)C2)cc1 (configuration not stated)	-14%	-15%
30	CN(C)c1ccsc1C(=O)NNS(=O)(=O)c1ccc(Cl)cc1	i	-13%
31	COc1ccc(/C=C/C(=O)N(CC(C)C)C2CCS(=O)(=O)C2)cc1 (configuration not stated)	-12%	-7%
32	CCN(CC)CCCNC(=O)CSc1nc(-c2ccc(OC)cc2)cc(C(F)(F)F)n1	-3%	-13%
33	COc1cc(/C=C(\C#N)C(=O)NCC2CCCO2)ccc1OCC(N)=O (configuration not stated)	-25%	-22%
34	Nc1nc(SCC(=O)Nc2ccc(C(F)(F)F)cc2)[nH]c(=O)c1NC(=O)c1ccc(F)c(F)c1	-7%	-3%
35	COc1ccccc1C(=O)Nc1ccc(-c2nc3ccccc3s2)c(C)c1	-16%	-20%
36	COc1cccc(C2C(C#N)=C(N)N(c3ncn[nH]3)C3=C2C(=O)CCC3)c1 (configuration not stated)	-1%	-6%
37	CCc1cccc(C)c1NC(=S)N1CCCCC1c1cccnc1 (configuration not stated)	i	-4%
38	CC(C)CN(CCNC(=O)CCN1N=C(c2ccccc2)CCC1=O)CC(C)C	-5%	-10%
39	CC(=O)ON1C(C)(C)Cc2noc(N)c2C1(C)C	·	-10%
40	COc1ccc(OC)c(NC(=O)C2Cc3ccccc3CN2S(=O)(=O)c2ccc(F)cc2)c1 (configuration not stated)	-11%	-5%
41	CCOc1ccc(-n2cc(-c3ccccc3)c3c(NCc4ccc(F)cc4)ncnc32)cc1	-17%	-12%
42	CCC1CN(CC(=O)NC(C)CO)Cc2cc(OC)ccc2O1 (configuration not stated)	-16%	-5%
43	CCCCNc1nc(N)ncc1[N+](=O)[O-]	i	-12%
44	O=C(Nc1ccccc1Cl)C1CCCN(S(=O)(=O)c2ccc(-n3cnnn3)cc2)C1 (configuration not stated)	i	-16%
45	COc1ccc(C)cc1Cn1c(S(C)(=O)=O)nc2ccccc21	-20%	?
46	CC1CCN(C(=O)COc2ccccc2F)CC1	·	-7%
47	COc1ccc(N2CC(C(=O)N[C@H](C(=O)NC3CCCCC3)C(C)C)CC2=O)cc1 (some centres not stated)	-7%	-8%
48	Cc1cc(C)nc(N2CCN(c3nnnn3-c3ccccc3)CC2)n1	-2%	-5%
49	CC(C)C[C@H]1CNC(=O)C(=O)N1C[C@H](Cc1ccc(O)cc1)NC(=O)Cc1ccccc1	-6%	-2%
50	CC(=O)c1cccc(NC(=O)C2CCCN(C(=O)c3cnn(-c4ccccc4)c3-n3cccc3)C2)c1 (configuration not stated)	i	-9%

The results go on:
cpd	Molecule	Vaccinia mCherry	VACV Venus inh
51	COc1ccc(S(=O)(=O)N2CCC(C(=O)N[C@H](C(=O)NCc3ccco3)C(C)C)CC2)cc1	-23%	-21%
52	O=S(=O)(Nc1ccc(OC(F)(F)F)cc1)c1ccc(N2CCCCS2(=O)=O)cc1	-17%	-23%
53	COc1ccc(NC(=O)C(c2ccccc2)n2c(=O)c(-c3cc4ccccc4[nH]3)nc3ccccc32)cc1 (configuration not stated)	?	-20%
54	Cn1nc(C(=O)Nc2sccc2C(N)=O)ccc1=O	-2%	-5%
55	O=C(CSCc1ccc(Cl)cc1)NN=C1CCCCCC1	i	-2%
56	O=C(O)C1CCC(CNS(=O)(=O)c2ccccc2)CC1 (configuration not stated)	i	-3%
57	COc1ccc(C(=O)N/C(=C/c2cccnc2)C(=O)Nc2cccc(C(C)=O)c2)cc1OC	-14%	-9%
58	CCN1CCN(C(=O)c2ccc(Sc3ccccc3Cl)c([N+](=O)[O-])c2)CC1	?	-22%
59	CN(C(=O)c1ccccc1)C(=O)c1ccccc1	-16%	-19%
60	Nc1nc(SCC(=O)N2CCCc3ccccc32)[nH]c(=O)c1-c1ccccc1	i	-7%
61	CCn1ncc(Br)c1C(=O)Nc1sc2c(c1C(=O)OC)CCC2	i	-10%
62	Fc1ccc(C2NCCc3[nH]cnc32)cc1 (configuration not stated)	-14%	-2%
63	O=C(O)CNS(=O)(=O)/C=C/c1ccccc1	i	1%
64	c1ccc(CSc2ncnc3c2sc2nc(N4CCOCC4)c4c(c23)CCCC4)cc1	-12%	-7%
65	NC(=O)COC(=O)/C=C/c1ccc(S(=O)(=O)N2CCCCCC2)cc1	i	-14%
66	CCOc1ccccc1Nc1nc2ccccc2[nH]1	-20%	-11%
67	Cc1nc(NCC2CC2)c2nnn(Cc3ccccc3)c2n1	-16%	-1%
68	O=C1CCC[C@@H]2[C@H]3CCC[N+]4([O-])CCC[C@@H](CN12)[C@@H]34 (some centres not stated)	i	-14%
69	N#Cc1ccc(OCc2ccc(C(=O)O)o2)cc1	-8%	5%
70	COCCSc1ccccc1C(=O)Nc1nnc(C)s1	-9%	3%
71	Cc1oc(-c2ccc(Cl)cc2)nc1CN1CCCC(C(=O)N2CCN(C(=O)c3ccco3)CC2)C1 (configuration not stated)	?	?
72	Cc1cc(=O)n2c(C(=O)Nc3ccc(C)c(Cl)c3)c(C(=O)Nc3ccccc3)sc2n1	4%	5%
73	COc1ccccc1NC(=O)CCn1nc(-c2ccccc2OC)c2c(C)cc(C)nc21	-28%	-27%
74	Cc1ccc(CNC(=O)CCc2ccc(S(=O)(=O)NCC(C)C)cc2)cc1	-13%	-19%
75	COc1cc(C2NCc3ccccc3-n3cccc32)ccc1O (configuration not stated)	·	-23%
76	Cc1ccc2cccc(OCC(=O)N3CC(C)CC(C)C3)c2n1 (configuration not stated)	-23%	-11%
77	Cc1ccc2scc(N3CCCC(C)C3)c(=O)c2c1 (configuration not stated)	-16%	-11%
78	CC1CCCCN1C(=O)COC(=O)/C=C/c1ccc2ccccc2n1 (configuration not stated)	?	?
79	CCc1ccc(-c2ccc(SCC(=O)NCC3CCCO3)nn2)cc1 (configuration not stated)	-18%	-13%
80	CCC(=O)Nc1ccccc1-c1nc2ccccc2n(CC(=O)c2ccc(C)c(C)c2)c1=O	-9%	-11%
81	CC(OC(=O)c1cccc(N2C(=O)c3ccccc3C2=O)c1)C(=O)Nc1ccc(N(C)C)cc1 (configuration not stated)	i	4%
82	Cc1nn2c(=O)cc(COC(=O)c3ccc(NC(=O)C4CCCCC4)cc3)nc2s1	-41%	?
83	Cc1onc(-c2ccccc2)c1C(=O)N1CCC(C)CC1	-14%	-5%
84	CCCCn1c(N)c(N(CCOC)C(=O)c2cc(CC)c(C)s2)c(=O)[nH]c1=O	-18%	-13%
85	Cc1c(C(=O)NCCCN2CCCC2=O)cnn1-c1ncc2c(n1)-c1ccccc1CC2	?	-25%
86	Cc1cc(-c2n[nH]c(=S)n2/N=C/C=C/c2ccco2)n[nH]1	-5%[7.34 µM]	-1%[7.34 µM]
87	CC(C)NC(=S)N1CCN(c2ncccn2)CC1	-12%	-9%
88	Cc1cc2oc(=O)cc(CSc3nnc(-c4cccs4)o3)c2cc1C(C)C	-29%	-25%
89	O=C(NNC(=O)C1CCN(Cc2ccccc2)CC1)c1cccs1	-9%	-7%
90	COc1ccc(CCNC(=O)C(=O)NCC(c2cccs2)S(=O)(=O)c2ccc(F)cc2)cc1 (configuration not stated)	-18%	-8%
91	O=C(Cn1c2c(c(-c3ccccc3Cl)cc1=O)CCC2)NCCCN1CCOCC1	-6%	5%
92	COC(=O)c1cccc(CN2C(=O)SC(Nc3ccc(Br)cc3)C2=O)c1 (configuration not stated)	-13%	-11%
93	O=C(Nc1ccccc1-c1nnn(CC(=O)N2CCCc3ccccc32)n1)c1ccco1	-10%	-5%
94	O=C(Cn1c(-c2ccccc2Cl)nc2ccccc21)Nc1cccc(Cl)c1	-13%	0%
95	CCOC(=O)CC1(C)c2nc(NC(C)=O)sc2Cc2sc(NC(C)=O)nc21	25%	10%
96	CC(C)(C)c1ccc(C(=O)Nc2ccc3c(c2)C(=O)NC3=O)cc1	-4%	-9%
97	O=C(Cc1sc(-c2ccccc2)nc1-c1ccccc1)Nc1ccc(Cl)cc1	-14%	-7%
98	Cc1ccc(NC(=O)c2ccc(OC(F)(F)F)cc2)cc1S(=O)(=O)N(C)C	?	?
99	CC1CCCC(NC(=O)CCN2C(=O)COc3ccccc32)C1C (configuration not stated)	i	-7%
100	Cc1ccccc1NC(=S)NCc1ccc2c(c1)cc(C)n2C	26%	-5%
101	Cc1ccc(C2=Nc3ccccc3N(CC(=O)Nc3ccccc3C)C(=O)C2)cc1C	-5%	-5%

Random draw from the library. Share with any hit: about 0.87%.
